miR-21 FLuc = qHTS Assay for Modulators of miRNAs and/orActivators of miR-21. HeLa miR-21 FLuc reporter, luciferase, 48 h. Potency, µM (top dose mostly 38.3 µM), for the others: at the highest dose reporter change, positive = more light. 340,000 tested, under 10 active; active = well fitted rising curve with a large enough effect; inconclusive = small, poorly fitted or top-dose-only effect; inactive = no such curve, though single readings can be large or run the other way;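 further: % of control where 0% means no effect; miR-21 action dims this reporter so a rising signal means less miR-21 action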
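Luminescence from a firefly luciferase reporter carrying a miR-21 binding site downstream, stably expressed under a CMV promoter in HeLa cells that make miR-21 endogenously, reports miRNA modulation after 48 h compound exposure up to approximately 40uM final.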
GLA inh pH 4.5 = qHTS Assay for Inhibitors of Human alpha-Galactosidase at pH 4.5. Alpha-galactosidase A (Homo sapiens), P06280. purified enzyme, 4-MU-alpha-Gal fluorescence, pH 4.5. activity change, negative = inhibition, % at 105 µM. 230,000 tested, under 10 active; inconclusive = small, poorly fitted or top-dose-only inhibition, or a rising curve; inactive = flat fitted curve, though single readings scatter; no compound was filed as active;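 further: 0% = full activity with enzyme and -100% = basal without enzyme; dose as in the result columns while the protocol names 77 µM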
Target sequence (P06280 whole entry, looked up): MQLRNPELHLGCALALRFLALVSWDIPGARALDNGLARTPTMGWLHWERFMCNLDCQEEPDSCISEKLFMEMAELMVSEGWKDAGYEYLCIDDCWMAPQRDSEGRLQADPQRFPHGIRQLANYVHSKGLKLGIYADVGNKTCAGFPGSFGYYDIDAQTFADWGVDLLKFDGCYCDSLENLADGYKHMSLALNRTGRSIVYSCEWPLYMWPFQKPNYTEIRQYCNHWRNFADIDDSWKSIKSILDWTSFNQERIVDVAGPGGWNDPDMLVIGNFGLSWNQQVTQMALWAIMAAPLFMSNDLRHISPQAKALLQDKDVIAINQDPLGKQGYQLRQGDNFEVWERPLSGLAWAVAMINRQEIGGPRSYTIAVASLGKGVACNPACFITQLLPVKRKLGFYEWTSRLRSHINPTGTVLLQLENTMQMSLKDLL
Rango complex inh = qHTS Assay for Inhibitors of Rango (Ran-regulated importin-beta cargo) - Importin beta complex formation. Importin subunit beta-1 (Homo sapiens), Q14974. Rango CFP/YFP FRET sensor + importin beta, 45 min. Potency, µM (top dose mostly 92.2 µM), for inactives: at the top dose inhibition of complex formation. 340,000 tested, 0.031% active. AID 540263, 2011; active = rising FRET ratio curve, often small or poorly fitted; inconclusive = mostly compound fluorescence or quenching in the first reads; inactive = flat curves in all reads;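 further: potency means the concentration at half of the fitted maximal effect; 0% = DMSO wells and 100% = buffer wells lacking importin beta; nearly all actives have a fitted effect of over 15% in size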
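FRET biosensor Rango (snurportin 1 IBB between N-terminal EYFP and C-terminal Cerulean), 50 nM in PBS/1 mM DTT/0.02% Tween-20/0.1% BSA, preincubated 5 min RT with compound; 0.125 microM importin beta added, 45 min RT, CFP/YFP FRET ratio read.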
Rango release inh = qHTS Assay for Inhibitors of RanGTP induced Rango (Ran-regulated importin-beta cargo) - Importin beta complex dissociation. Snurportin-1 (Homo sapiens) + GTP-binding nuclear protein Ran (Homo sapiens) + Importin …. Potency, µM (doses to about 46.1 µM), inactives show at the highest dose activity change, negative = inhibition. AID 540253, 2011. 340,000 tested, 0.071% active. Biochemical FRET Rango-importin beta, RanGTP-induced dissociation; active means falling FRET ratio curve, often poorly fitted, with flat reads before Ran was added; inconclusive means other falling curves, or compound fluorescence or quenching; inactive means flat or rising ratio curve;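 further: potency means the concentration at half of the fitted maximal effect; % of control where 0% means no effect; nearly all actives have a fitted effect of over 45% in size; -100% = wells without RanGTP and RCC1; the record marks most hits as doubtful in a second field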
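Compounds sat 5 min at room temperature with 0.1 uM Rango biosensor plus 0.25 uM importin beta, then FRET pre-read. RanGTP-RCC1 (0.6 uM Ran, 2mM GTP, 0.2 uM RCC1) added for 45 min, and the CFP/YFP post-read measured blocked complex dissociation.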
* = called active by the depositor; ? = inconclusive; / = no result given; [ ] = dose if it differs, or a comment.

Preview, 6 compounds:
SMILES | miR-21 FLuc | GLA inh pH 4.5 | Rango complex inh | Rango release inh
CC(C)c1ccc(NC(=O)Cn2cccc2C2=NC(c3ccccc3)CO2)cc1 (centres undefined) | -2% | 6 | 0.1% | -11%
O=C(N[C@@H](Cc1ccccc1)C(=O)N1CCN(S(=O)(=O)c2ccccc2F)CC1)c1ccco1 | / | / | 0.8% | -6%
CCN(C(=O)COC(=O)c1ccc(OC)c(S(=O)(=O)N(C)Cc2ccccc2)c1)C1CCS(=O)(=O)C1 (centres undefined) | / | / | -4.7% | -12%
CCCn1c(SCC(=O)Nc2ccc(OC)cc2[N+](=O)[O-])n[nH]c1=O | 0% | -2 | -3.1% | -12%
Cc1ccc2nc(N3CC(=O)Nc4ccccc43)nc(-c3ccccc3)c2c1 | -12% | 3 | ? | ?
CCCCCN(C(=O)COC(=O)c1ccc(Br)o1)c1c(N)n(CCCC)c(=O)[nH]c1=O | -6% | 3 | -3.3% | 1%

Results, repeating the preview:
SMILES | miR-21 FLuc | GLA inh pH 4.5 | Rango complex inh | Rango release inh
CC(C)c1ccc(NC(=O)Cn2cccc2C2=NC(c3ccccc3)CO2)cc1 (centres undefined) | -2% | 6 | 0.1% | -11%
O=C(N[C@@H](Cc1ccccc1)C(=O)N1CCN(S(=O)(=O)c2ccccc2F)CC1)c1ccco1 | / | / | 0.8% | -6%
CCN(C(=O)COC(=O)c1ccc(OC)c(S(=O)(=O)N(C)Cc2ccccc2)c1)C1CCS(=O)(=O)C1 (centres undefined) | / | / | -4.7% | -12%
CCCn1c(SCC(=O)Nc2ccc(OC)cc2[N+](=O)[O-])n[nH]c1=O | 0% | -2 | -3.1% | -12%
Cc1ccc2nc(N3CC(=O)Nc4ccccc43)nc(-c3ccccc3)c2c1 | -12% | 3 | ? | ?
CCCCCN(C(=O)COC(=O)c1ccc(Br)o1)c1c(N)n(CCCC)c(=O)[nH]c1=O | -6% | 3 | -3.3% | 1%
COc1cc2c(cc1OC)[C@@H](NC(=O)CCC1CCCCC1)[C@H](O)C2 | / | / | -0.3% | 6%
COCCn1nnnc1CN1CCC(NC(=O)c2ccc(Br)cc2)CC1 | -6% | -4 | 0.1% | -11%
CC(=O)C1=C(O)C(=O)N(CC(=O)O)C1c1ccccc1Cl (centres undefined) | -2% | / | 4.1% | -5%
O=C(c1cccc(Cl)c1Cl)N1CCN(c2ccccn2)CC1 | -4% | -3 | -0.9% | 30%
Cc1cc(C)c(C(=O)N2CCCC(N3CCN(c4ccc(F)cc4)CC3)C2)o1 (centres undefined) | -1% | / | -1.9% | 2%
O=C(Nc1nonc1-c1ccc(Cl)cc1)c1ccccc1 | 13% | -13[21.1 µM] | -5.1% | -14%
CC(C)(C)NC(=O)CN(C(=O)c1csnn1)c1ccccc1-c1ccccc1 | 4% | 2 | 0.0% | -20%
COc1ccc(NS(=O)(=O)c2ccc(O)c([N+](=O)[O-])c2)cc1S(=O)(=O)N1CCCCC1 | / | / | -2.0% | -10%
COC(=O)c1ccc(COc2ccccc2[N+](=O)[O-])o1 | -37% | -3 | ? | 7%
CCOc1ccc(/C=N/n2c(SC)nnc(C(C)(C)C)c2=O)cc1 | -2% | 0 | -0.2% | -14%
COc1ccc(NC(=O)COc2ccc(C)nc2[N+](=O)[O-])cc1S(N)(=O)=O | / | / | 0.8% | -4%
COc1ccc2[nH]c(C)c(C(=O)CN3CC(C)OC(C)C3)c2c1 (centres undefined) | 1% | -4 | 0.4% | 2%
O=C1CC(c2cccc(Br)c2)c2cc3c(cc2N1)CCC3 (centres undefined) | 24% | 0 | 5.7% | -3%
CCN(CC)c1ncnc2c1cnn2Cc1ccc(C)cc1 | -23% | / | -4.1% | 2%
CCN(C(=O)CSc1nc2c(cnn2-c2ccccc2)c(=O)[nH]1)C1CCS(=O)(=O)C1 (centres undefined) | 0% | 2 | -0.1% | 8%
O=C(CNc1cc(S(=O)(=O)N2CCOCC2)ccc1N1CCCC1)N1CCc2ccccc21 | -6% | -7 | -3.8% | 2%
Cc1nc(N2CCC(C)CC2)c(C#N)c(C)c1[N+](=O)[O-] | -13% | -19 | 5.2% | 18%
COc1ccccc1-c1cc(C(=O)N/N=C\c2cnn(C)c2C)c2ccccc2n1 | -4% | -1 | 1.5% | 0%
O=C(O)c1cc(N/N=C/c2cccc3ccccc23)ccc1Cl | -63% | / | ? | ?

New compounds follow.
SMILES | miR-21 FLuc | GLA inh pH 4.5 | Rango complex inh | Rango release inh
CN(C)CCCNS(=O)(=O)c1ccc(-n2nnc3ccccc32)c([N+](=O)[O-])c1 | 0% | / | 1.2% | 9%
O=Cc1c(Cl)nc2ccccn12 | 3% | 2 | -0.8% | 2%
CCCN1CCN(CCCNC(=S)Nc2ccc(OC)cc2)CC1 | -8% | -9 | 5.8% | -6%
CC(C)Oc1ccc(C(=O)Nc2c3c(nn2-c2ccccc2)CS(=O)(=O)C3)cc1 | -4% | / | 5.4% | -2%
CCCc1cc(=O)[nH]c(SCC(=O)N2CCN(S(=O)(=O)c3ccccc3)CC2)n1 | -12% | 5 | 2.2% | 0%
CC(=O)Nc1c(O)c2cccc3c2n(c1=O)CCC3 | / | / | -0.6% | -1%
CCCCOC(C)n1cc(F)c(=O)[nH]c1=O (centres undefined) | -6% | -9 | 0.0% | -5%
Cn1nc(C(F)(F)F)c(CNC(=O)C(C)(C)CCl)c1N1CCOCC1 | -1% | 3 | 1.6% | -7%
CCCCCCN=C1CC(C)(C)CC(=O)/C1=C(/O)CCC | 10% | -3 | -6.0% | 1%
COc1ccc(C(=O)NCC(=O)N/N=C/c2cccnc2)cc1OC | -1% | / | -1.7% | -7%
COc1ccc(N2CCN(C(CNC(=O)C(=O)NCC(OC)OC)c3ccco3)CC2)cc1 (centres undefined) | 1% | / | -1.8% | 6%
Cc1cccc(N2CC(c3nc4ccccc4n3C)CC2=O)c1C (centres undefined) | -15% | -3 | -3.9% | -10%
Cc1cccc(C)c1NC(=O)CSc1nnc(-c2cnccn2)n1C | 0% | / | 1.8% | 27%
COC(=O)c1ccc(C)c(NC(=O)CN2C(=O)c3ccccc3S2(=O)=O)c1 | -5% | -4 | 1.9% | ?
O=C(Nc1cccc(Cl)c1)OCCOCCOC(=O)Nc1cccc(Cl)c1 | / | / | 7.0% | -7%
CN(C)C(=O)CCSc1nnc(-c2ccco2)o1 | -3% | -10 | -1.0% | -17%
CC(=O)Nc1ccc(S(=O)(=O)n2cnc(C)c2)cc1 | -15% | -6 | -3.7% | 0%
O=C(Nc1cccc(Cl)c1)c1nc[nH]c1C(=O)N1CCc2ccccc2C1 | / | / | 1.1% | 0%
CC(C)(C)Nc1nc(Cl)nc(N(C#N)CN2C(=O)c3ccccc3S2(=O)=O)n1 | -1% | -8 | ? | -11%
CCOC(=O)c1c(NC(=S)Nc2ccc(OC)cc2)sc2c1CCC2 | -16% | 6 | -1.3% | -5%
O=C(Nc1ccc2c(c1)OCO2)C(c1ccccc1)N1CCC2(CC1)OCCO2 (centres undefined) | -8% | 5 | 0.4% | -10%
Cc1ccc(S(=O)(=O)N2CCOCC2)cc1C(=O)OCC(=O)NC1CCCC1 | / | / | -2.1% | 17%
O=C(Nc1ccccc1)Nc1cccc2nsnc12 | -9% | -7 | ? | ?
Cc1cc(C)cc(N(CC(=O)O)S(=O)(=O)c2c(C)noc2C)c1 | -3% | 7 | -3.0% | -6%
CCOC(=O)C1C(c2ccc(O)c(OC)c2)NC(=O)NC1(O)C(F)(F)F (centres undefined) | -3% | / | -2.3% | 9%

New compounds follow
SMILES | miR-21 FLuc | GLA inh pH 4.5 | Rango complex inh | Rango release inh
Cc1ccc2nc(N3CCN(C(=O)c4ccccc4F)CC3)c(C#N)cc2c1 | / | / | ? | ?
Cc1ccc(CN2C3=NC(=O)CN3c3ccccc32)cc1 | -11% | 6 | 0.9% | 1%
C=CCn1c(SCCOc2ccc(OC)cc2)nnc1C(C)NC(=O)Cc1ccc(OC)cc1 (centres undefined) | 3% | -27 | -1.4% | -2%
Cc1cc(C)nc(SCc2nnc(SCC(N)=O)o2)n1 | -1% | 7 | -1.8% | 1%
Cc1cccc(C(=O)OCC(=O)Nc2ccc3c(c2)OCCO3)c1O | / | / | 0.0% | 7%
O=C(NCc1nc2ccccc2[nH]1)c1cc2ccccc2oc1=O | -5% | -2 | ? | -17%
O=C1C(=O)N(Cc2cccs2)c2ccccc21 | 6% | / | -1.6% | 1%
Nn1c(Cc2ccccc2)nc2sc3c(c2c1=O)CCC3 | 0% | -11 | -2.2% | 6%
CCO[C@H]1OC(C(=O)N2CCN(Cc3ccccc3)CC2)=C[C@@H](c2ccc(C(F)(F)F)cc2)[C@@H]1CCCO | ? | -13 | 0.5% | 27%
Cc1c(SCCO)c(=O)[nH]c2cc3c(cc12)OCO3 | -4% | 23 | 3.0% | 11%
Cn1cc(C(=O)C(F)(F)F)c2ccccc21 | -2% | -1 | 0.1% | 2%
CC(C)OC(=O)Nc1ccc2c(c1)N(C(=O)N1CCN(C)CC1)c1ccccc1CC2 | -26% | -3 | -2.3% | 18%
COc1ccc(NC(=O)Cn2c(=O)n(CC3CCCO3)c(=O)c3cc(OC)c(OC)cc32)cc1OC (centres undefined) | 0% | / | -0.1% | 4%
COC(=O)c1c(C(C)=O)c(C)n(C)c1C | -3% | 2 | -0.9% | 3%
Cc1ccc2nc(C3CCN(C(=O)NCc4ccccc4)CC3)[nH]c2c1 | -28% | 5 | 2.0% | 8%
CCN(Cc1nc2cc(Cl)ccc2c(=O)[nH]1)C(=O)CN1C(=O)NC2(CCCCC2C)C1=O (centres undefined) | / | / | -1.9% | -3%
Nc1cc(OCC(F)(F)F)cc([N+](=O)[O-])c1 | -10% | 6 | 3.3% | -24%
COCC(=O)n1nc(-c2ccccc2)nc1NCc1ccc(F)cc1 | -41% | -11 | -1.7% | 3%
CCC/C(=N/NC(=O)c1nnn(-c2nonc2N)c1CN1CCCCC1)c1ccccc1 | / | / | -1.9% | 6%
Cn1cccc1C1Nc2ccccc2NC2=C1C(=O)CC(C)(C)C2 (centres undefined) | -15% | 6 | ? | ?
O=C(N/N=C/c1c[nH]c2ccc(Br)cc12)c1ccc2c(c1)OCO2 | 17% | 6 | -7.5% | 1%
CCN1CCCC1CNC(=O)c1ccc2c(c1)NC(=O)/C(=C\c1ccc(C)cc1)S2 (centres undefined) | ? | / | 5.4% | -13%
CCOC(=O)CSc1nc2c(c(=O)n(Cc3ccccc3Cl)c(=O)n2C)n1C | 2% | 6 | 1.8% | -3%
O=C(NCCc1nc(-c2ccccc2)no1)c1ccco1 | / | / | -2.1% | 44%
Cc1cccc(N(C(=O)c2ccc(CN3CCOCC3)o2)C(C(=O)NC(C)(C)C)c2ccc(F)cc2)c1 (centres undefined) | -5% | 0 | 0.7% | 10%

(continued)
SMILES | miR-21 FLuc | GLA inh pH 4.5 | Rango complex inh | Rango release inh
C=CC[C@H](CC(=O)N[C@H](CO)Cc1ccccc1)C(=O)N[C@H](COC(=O)[C@H](CC=C)CC(=O)OC(C)(C)C)Cc1c[nH]c2ccccc12 | / | / | -3.6% | 28%
Cc1cc(C(=O)COC(=O)C2=COCCO2)c(C)n1-c1ccccc1 | / | / | 3.9% | 19%
CCOC(=O)c1c(NC(=O)CSc2nnc(-c3ccco3)o2)sc(C(C)=O)c1C | -6% | -5 | -4.5% | -11%
CCOc1cc(-c2nn3cnnc3s2)cc(OCC)c1OCC | -2% | -1 | -0.9% | -3%
Cc1[nH]n(-c2ccccc2)c(=O)c1/C=N/N1CCOCC1 | -5% | -8 | 3.0% | -4%
S=C(NC12CC3CC(CC(C3)C1)C2)N1CCOCC1 | -3% | -1 | -0.1% | 16%
O=C(O)c1cccc(Nc2nc(-c3cccnc3)nc3ccccc23)c1 | 0% | -1 | 2.3% | 1%
Cc1ccc(S(=O)(=O)N(CC(=O)NCc2ccccc2)C(=O)N2CCN(C)CC2)cc1 | / | / | -0.2% | 5%
CCCCn1nc(C(=O)Nc2ccc3c(c2)OCO3)c2ccccc2c1=O | / | / | -1.3% | 15%

From PubChem BioAssay

Only part of the results is shown; rates above refer to the full screens.
